Mtb H37Rv: M. tuberculosis H37Rv growth inhibitors, H37Rv strain (AID 1626); M. tuberculosis H37Rv growth inhibition; higher % means a stronger effect; inhibition, % at 10 µM, or IC50 in µM where a hit was titrated; 220,000 tested, 0.95% active;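 active = confirmed in a dose series; inconclusive = inhibition above 80% but not taken into the dose series; inactive = below 80% or under 30% at every dose of the series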;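 note: bacteria incubated seven days before Alamar blue readout; 0% = bacteria only wells and 100% = bacteria with antibiotic wells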
YopH inh: YopH (Yersinia) phosphatase inhibition | fluorescence Ex485/Em525 | inhibition, %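 (about 10 µM by stock and volumes)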 | 140,000 tested, 0.16% active;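 active = inhibition of 50% or more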;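 note: controls were vehicle for no effect and minimum signal wells for full effect; inactives centre near -20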
RecA splice inh: blocks M. tuberculosis RecA intein splicing; P9WHJ3; cell-free RecA intein splicing, fluorescence; inhibition, %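 (about 9 µM by stock and volumes)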; 290,000 tested, 0.75% active; AID 2221; in the data active = inhibition above about 30%; inconclusive = no clear call, values can overlap the other calls;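 note: 0% = vehicle wells and 100% = reference inhibitor control wells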
Target sequence (P9WHJ3 whole entry, looked up, canonical isoform): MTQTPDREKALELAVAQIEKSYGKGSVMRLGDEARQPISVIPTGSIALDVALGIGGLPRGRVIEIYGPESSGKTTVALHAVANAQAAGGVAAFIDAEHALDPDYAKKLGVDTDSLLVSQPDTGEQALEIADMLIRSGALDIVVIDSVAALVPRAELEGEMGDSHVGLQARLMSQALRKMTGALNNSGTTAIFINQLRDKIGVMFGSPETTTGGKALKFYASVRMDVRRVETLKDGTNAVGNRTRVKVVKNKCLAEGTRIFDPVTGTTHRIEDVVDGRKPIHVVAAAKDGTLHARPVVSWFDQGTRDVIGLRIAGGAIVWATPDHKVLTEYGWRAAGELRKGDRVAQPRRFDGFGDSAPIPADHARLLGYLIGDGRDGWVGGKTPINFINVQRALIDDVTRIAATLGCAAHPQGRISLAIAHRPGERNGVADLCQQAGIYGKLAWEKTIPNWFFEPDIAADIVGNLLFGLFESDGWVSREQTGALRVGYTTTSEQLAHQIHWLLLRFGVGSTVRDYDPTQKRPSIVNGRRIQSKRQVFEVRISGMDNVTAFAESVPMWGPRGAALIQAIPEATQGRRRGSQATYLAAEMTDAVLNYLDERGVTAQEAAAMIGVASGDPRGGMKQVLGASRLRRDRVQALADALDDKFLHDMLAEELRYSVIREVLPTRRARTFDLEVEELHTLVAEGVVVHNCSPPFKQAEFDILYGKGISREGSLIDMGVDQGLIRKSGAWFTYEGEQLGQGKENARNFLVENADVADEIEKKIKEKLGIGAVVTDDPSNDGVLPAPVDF
Mtb betalactam: beta-lactam sensitization of Mtb H37Rv. M. tuberculosis H37Rv growth with meropenem, percent inhibition; hits of this screen are not shown here. inhibition, % at 25 µM. 330,000 tested, 0.27% active;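 active = about 74% or more and at least 40 points above the plate without the antibiotic, then above 30% in a dose series; inconclusive = first-round hits that could not be retested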;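 note: growth measured after seven days incubation then overnight dye step; 0% = bacteria only wells and 100% = bacteria with antibiotic; twin plates without the antibiotic show which effects depend on it; some results filed as inactive read as strong as hits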
Arbovirus anti: arbovirus infection inhibition | arbovirus infection cell-based antiviral screen | inhibition, % at 10 µM | 200,000 tested, 0.37% active | AID 1251;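 active = inhibition from about 30%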;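 note: bluetongue infection of BSR cells; cell survival read as ATP light after 72 h; 0% = infected wells without compound and 100% = uninfected wells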
Arbovirus anti repeat: further read-out of Arbovirus anti, marked with its call; inhibition, %; measured here: 10K subset replicate screen; many hits read low in the repeat;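 first of two repeat runs on a subset; 0% = infected and 100% = uninfected wells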
The depositor's hits bear a star; ? = inconclusive; / = not tested or not shown. The list is partial (hit frequency here may not be typical).

The opening three records, to show the layout:
SMILES | Mtb H37Rv | YopH inh | RecA splice inh | Mtb betalactam | Arbovirus anti | others
CC1Cc2ccccc2N1C(=O)CCS(=O)(=O)c1cccc2nonc12 (stereo not drawn) | 7% | -20 | 1.5 | 15 | 8 | Arbovirus anti repeat=3
Cc1ccccc1OC(C)C(=O)NC1CCCC1 (stereo not drawn) | -12% | -21 | 0.7 | -12 | -4
COc1ccccc1CN(Cc1nc2ccccc2c(=O)[nH]1)C(=O)Nc1ccccc1 | 5% | -39 | -0.1 | 1 | 3

All compounds of this part, repeating the preview:
SMILES | Mtb H37Rv | YopH inh | RecA splice inh | Mtb betalactam | Arbovirus anti | others
CC1Cc2ccccc2N1C(=O)CCS(=O)(=O)c1cccc2nonc12 (stereo not drawn) | 7% | -20 | 1.5 | 15 | 8 | Arbovirus anti repeat=3
Cc1ccccc1OC(C)C(=O)NC1CCCC1 (stereo not drawn) | -12% | -21 | 0.7 | -12 | -4
COc1ccccc1CN(Cc1nc2ccccc2c(=O)[nH]1)C(=O)Nc1ccccc1 | 5% | -39 | -0.1 | 1 | 3
Cc1ccc(S(=O)(=O)N2CCCC(C(=O)Nc3ccc(NC(=O)c4ccccn4)cc3)C2)cc1 (stereo not drawn) | -4% | -12 | 1.3 | 2 | 5
COc1ccc(Cc2nnc(NC(=O)Nc3ccccc3)s2)cc1OC | / | / | -0.9 | 5 | /
CN1C(=O)CSc2ccc(NC(=O)NCCC3=CCCCC3)cc21 | 5% | -25 | 0.2 | 1 | -11
Cn1c(NCCN(CCO)CCCc2ccc([N+](=O)[O-])cc2)cc(=O)n(C)c1=O | -11% | / | -1.7 | -5 | /
COc1ccc(N2CCN(S(=O)(=O)c3ccc(Br)s3)CC2)cc1 | 8% | 2 | 6.8 | 6 | -1
COc1cccc(SCc2noc(C(=O)NCCCN3CCOCC3)c2C(=O)NCCCN2CCOCC2)c1 | -10% | / | -1.8 | 5 | /
Cc1cccc(NC(=O)C2(c3cccs3)CCOCC2)n1 | -3% | -19 | 4.8 | -1 | 2
O=P(O)(CP(=O)(c1ccccc1)c1ccccc1)c1ccccc1O | 7% | -122 | -3.5 | -1 | 9
CCN(CC)CCCN1C(=O)C(=O)/C(=C(/O)c2ccccc2)C1c1cc(OC)ccc1OC (stereo not drawn) | -11% | / | -0.8 | 2 | /
Nc1nc(N)nc(-c2ccccc2-c2nc(N)nc(N)n2)n1 | 0% | / | -2.5 | 3 | /
CCOc1ncccc1C(=O)N1CCN(S(=O)(=O)c2ccccc2)CC1 | -6% | / | -6.4 | 1 | 2
COc1ccccc1C(=O)OCC(=O)c1cccc([N+](=O)[O-])c1 | -8% | -23 | -1.0 | 1 | 0
O=C(NC(=O)c1ccccc1Cl)C(=O)Nc1ccc(Cl)cc1 | / | / | 3.0 | ? | /
O=[N+]([O-])c1ccc(O)c(/C=N/n2c(CO)nc3ccccc32)c1 | -3% | / | 1.3 | 4 | /
COC(=O)Cc1n[nH]c(=S)[nH]c1=O | -5% | -5 | 0.4 | -2 | -7
Cc1cccc(NC(=O)/C(=C\c2cccs2)NC(=O)c2ccccc2)c1 | -3% | -25 | 0.4 | -4 | 2
COc1ccccc1C(=O)N1CCN(S(=O)(=O)Cc2ccccc2)CC1 | -1% | -44 | 0.6 | -2 | 0
CCOc1ccc2ncc(S(=O)(=O)c3ccccc3)c(N3CCN(c4ccccc4)CC3)c2c1 | / | / | -0.6 | -2 | /
CCN(CC)CCCC(C)NC1=NCCCCC1 (stereo not drawn) | 2% | -28 | 0.3 | 2 | 7
COc1ccc(CN(C)C(=O)c2ccc(NS(=O)(=O)c3ccc4[nH]c(=O)[nH]c4c3)cc2)c(OC)c1 | / | / | 1.2 | -18 | /
Cc1cc(NC(=O)c2ccc3c(c2)OCCO3)ccc1NC(=O)c1ccco1 | -8% | / | / | -7 | -10
CCOC(=O)C1CCCN(c2c(NCCN3CCCCC3CC)c(=O)c2=O)C1 (stereo not drawn) | 0% | -3 | 0.7 | -6 | 6

Random excerpt: 2 records from the list, in no set order.
SMILES | Mtb H37Rv | YopH inh | RecA splice inh | Mtb betalactam | Arbovirus anti | others
COc1cccc(SCc2noc(C(=O)NCCCN3CCOCC3)c2C(=O)NCCCN2CCOCC2)c1 | -10% | / | -1.8 | 5 | /
COc1ccccc1CN(Cc1nc2ccccc2c(=O)[nH]1)C(=O)Nc1ccccc1 | 5% | -39 | -0.1 | 1 | 3

(cont.)
SMILES | Mtb H37Rv | YopH inh | RecA splice inh | Mtb betalactam | Arbovirus anti | others
O=C(Nc1ccccc1)c1ccc(NC(=O)c2cccs2)cc1 | / | / | -3.1 | -2 | /
Cc1ccc(C(=O)OCc2cn3ccccc3n2)cc1 | 2% | -34 | 0.2 | 2 | 11
O=C(NCC1CCOCC1)C1CCC(=O)N(Cc2cccc(C(F)(F)F)c2)C1 (stereo not drawn) | / | / | -0.5 | 0 | /
CCN(c1ccccc1)S(=O)(=O)c1cccc(C(=O)NCC(c2cccs2)N2CCOCC2)c1 (stereo not drawn) | / | / | -0.7 | -8 | /
COc1ccc(/C=C/C(=O)Oc2ccc(/C=N/NC(=O)c3ccccc3)cc2)cc1OC | 17% | 0 | -5.0 | 0 | -11
Cn1c(N)c(C(=O)COC(=O)CCCN2C(=O)c3ccccc3C2=O)c(=O)n(C)c1=O | -4% | / | 0.9 | -8 | 1
O=C(Nc1cccnc1)c1ccc2ccccc2c1O | / | / | -2.7 | 3 | /
CCOc1ccc(NC(=O)C(C)Sc2nnc(C)n2C)cc1 (stereo not drawn) | -4% | -19 | 0.2 | -2 | 2 | Arbovirus anti repeat=-1
COc1ccc(C)cc1N(C(=O)c1ccco1)C(C(=O)NC1CCCC1)c1ccc(N2CCOCC2)cc1 (stereo not drawn) | / | / | -0.5 | -7 | /
O=C(NCc1ccco1)c1cc(S(=O)(=O)N2CCCc3ccccc32)ccc1Cl | 8% | -13 | 8.1 | -2 | 9
Cc1cc(=O)[nH]c(SCC(=O)Nc2nonc2C)n1 | / | / | -0.1 | -6 | /
CCOCCCN1C(=O)CN(C2CCCCC2)C(=O)C1c1ccc(OC)c(OC)c1 (stereo not drawn) | -8% | -31 | 1.5 | -8 | 3
CCSCCNC(=O)c1cc(-n2cnnc2)ccc1Cl | -22% | -6 | 0.9 | -16 | -4
CC1(C)NC(=O)N(CC(=O)OCC(=O)Nc2cc(S(=O)(=O)N3CCCCC3)ccc2Cl)C1=O | 3% | -31 | 3.7 | 10 | -2
Nc1cc(=O)[nH]c(SCC(=O)N2N=C(c3ccc4ccccc4c3)CC2c2ccccc2)n1 (stereo not drawn) | 9% | / | 0.5 | -2 | /
COc1ccc(C(=O)n2ncc(C#N)c2N)cc1 | -6% | / | 9.4 | / | 13
COc1ccc(-c2csc(NC3=NCCCCC3)n2)cc1 | 6% | -26 | 3.5 | 3 | -13
CC(=O)Nc1ccc(S(=O)(=O)Nc2nnc(C3CCCCC3)s2)cc1 | 1% | -20 | -1.1 | -6 | 4
Clc1ccc(C(c2ccccc2)c2ncc[nH]2)cc1 (stereo not drawn) | -1% | -25 | -1.0 | -5 | -4
CC(C)CC(=O)Nc1ccccc1N1CCCC1 | 7% | -19 | -1.5 | 15 | 2
Cc1nc(-c2ccc(Cl)cc2)sc1C1(C)CC(c2ccc(OC(F)(F)F)cc2)=NO1 (stereo not drawn) | 2% | / | 0.3 | 50 | /
CCOC(=O)N1CCN(S(=O)(=O)N2CCCC(C(=O)NCCCN3CCC(C)CC3)C2)CC1 (stereo not drawn) | / | / | -0.6 | -3 | /
O=C(C1CCN(c2nc3nonc3nc2N2CCCCC2)CC1)N1CCOCC1 | 1% | / | 3.1 | 6 | -3
COc1ccc(/C=N/NC(=O)CCC(=O)Nc2ccccc2)cc1OC | -2% | -26 | -1.2 | -1 | -10
CC(=O)c1cc(-c2ccc(F)cc2)n(CCC(=O)Nc2cccc(C)n2)c1C | 7% | / | -0.1 | 6 | 12
SMILES | Mtb H37Rv | YopH inh | RecA splice inh | Mtb betalactam | Arbovirus anti | others
OC(COc1ccc(CNCCc2ccc(C(F)(F)F)cc2)cc1)CN1CCCCC1 (stereo not drawn) | -7% | / | -1.2 | -5 | -38
COc1ccc(-c2cc3ncc(-c4ccccc4)c(N)n3n2)cc1 | -4% | / | -3.3 | / | -7
COc1cc(OC)cc(C(=O)NCC(=O)Nc2ccc(-c3ccccc3)cc2)c1 | / | / | 2.2 | 90 | /
CC(C)(C)OC(=O)NC(CNCc1ccccc1)Cc1ccccc1 (stereo not drawn) | / | / | 5.2 | -11 | /
O=C(COc1ccc2ccc(=O)oc2c1)NCCCn1ccnc1 | / | / | 0.7 | -7 | /
CN(C)S(=O)(=O)N(CC(=O)N(Cc1ccccc1)Cc1ccccc1)c1ccccc1 | -3% | -5 | 7.6 | -5 | -4
O=C(CSc1nc(C(F)(F)F)cc(=O)[nH]1)NCC1CCCO1 (stereo not drawn) | / | / | -0.4 | 4 | /
C(=C\CSc1nnnn1-c1ccccc1)/CSc1nnnn1-c1ccccc1 | 0% | -28 | 1.0 | -12 | 4 | Arbovirus anti repeat=2
COc1ccc2cc(C(=O)C3CCCN(C4CCOCC4)C3)ccc2c1 (stereo not drawn) | -2% | / | -0.1 | -6 | -18
CC(=O)Nc1cccc(Oc2ccc(-c3noc(C)n3)cc2)c1 | 0% | -8 | 3.0 | -4 | 0
NC(=O)C(c1ccccc1)C1CCCC1 (stereo not drawn) | -4% | -10 | -0.7 | -5 | 11
COc1ccc(OC)c(CNC(=O)C2CCCN(S(=O)(=O)N3CC(C)CC(C)C3)C2)c1 (stereo not drawn) | / | / | 4.6 | 3 | /
O=c1c2ccccc2nc(SCc2nc3ccccc3s2)n1Cc1ccco1 | 4% | -29 | 5.0 | -3 | -10
CCCc1cc(=O)n2nc(N3CCC(C(=O)Nc4cccc(C(C)=O)c4)CC3)sc2n1 | / | / | 1.4 | 1 | /
Cc1ccc(Cn2c(SCC(N)=O)nc3c2c(=O)n(C)c(=O)n3C)cc1 | -1% | -16 | 0.0 | 7 | 0
O=C(Cc1ccccc1[N+](=O)[O-])Nc1ccc2c(c1)OCCO2 | 1% | -25 | -0.4 | 5 | 6
CN1CCN(C(=S)c2ccc(OCC(=O)Nc3cccc(C(F)(F)F)c3)cc2)CC1 | 4% | -9 | 1.5 | 54 | -13
CC(C)NC(=O)NC(=O)CSc1nncs1 | -3% | / | -2.5 | -7 | 5

Taken from above, three compounds:
SMILES | Mtb H37Rv | YopH inh | RecA splice inh | Mtb betalactam | Arbovirus anti | others
CC1Cc2ccccc2N1C(=O)CCS(=O)(=O)c1cccc2nonc12 (stereo not drawn) | 7% | -20 | 1.5 | 15 | 8 | Arbovirus anti repeat=3
Cc1ccccc1OC(C)C(=O)NC1CCCC1 (stereo not drawn) | -12% | -21 | 0.7 | -12 | -4
COc1ccccc1CN(Cc1nc2ccccc2c(=O)[nH]1)C(=O)Nc1ccccc1 | 5% | -39 | -0.1 | 1 | 3

A draw from above in order of formula weight, largest number first:
SMILES | Mtb H37Rv | YopH inh | RecA splice inh | Mtb betalactam | Arbovirus anti | others
COc1ccc(OC)c(CNC(=O)C2CCCN(S(=O)(=O)N3CC(C)CC(C)C3)C2)c1 (stereo not drawn) | / | / | 4.6 | 3 | /
CCCc1cc(=O)n2nc(N3CCC(C(=O)Nc4cccc(C(C)=O)c4)CC3)sc2n1 | / | / | 1.4 | 1 | /
CN(C)S(=O)(=O)N(CC(=O)N(Cc1ccccc1)Cc1ccccc1)c1ccccc1 | -3% | -5 | 7.6 | -5 | -4
COc1ccc2cc(C(=O)C3CCCN(C4CCOCC4)C3)ccc2c1 (stereo not drawn) | -2% | / | -0.1 | -6 | -18
NC(=O)C(c1ccccc1)C1CCCC1 (stereo not drawn) | -4% | -10 | -0.7 | -5 | 11

From PubChem
